# Bioassay records from PubChem.
# Anaer choline gr: choline-fed anaerobic bacterial growth inhibition. calls only. 55,000 compounds, 0.2% hits. Gram-negative bacterium anaerobic choline minimal medium, absorbance growth; stronger effect = lower value; many inactives read as strong as hits in the columns shown;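 active means growth z-score on choline under -2 at 7 or 20 h with little or no fall on glycerol, limits in tiers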;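 further: stock transfer was 300 nL into about 50 µL; the organism is E. coli; final concentration not given here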
# Anaer choline gr early: further read-out of Anaer choline gr, marked with its call; z-score; measured here: choline growth z-score, timepoint 1;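 score of optical density at 7 h as mean of two plates; lower means less growth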
# Numbers without * were called inactive; i = inactive; + = active, no number; & = joins results of further samples.
# Fields: Anaer choline gr | Anaer choline gr early
- Cc1nc2sccn2c(=O)c1S(=O)(=O)NCCC1=CCCCC1
    i | 0.34
- Cc1ccc(-c2nc3cnc(Br)cn3c2Nc2ccc3c(c2)OCO3)cc1
    i | 1.95
- CCn1cc(C)c(C(=O)O)c1CC(=O)NCC(C)C
    i | 0.62
- CC(C)NC(=O)c1ccc(-c2nc3cc(NS(=O)(=O)Cc4ccccc4)ccc3n2C)cc1
    i | 0.11
- Cc1ccc(-c2csc3c2ncn2c(=O)n(CC(=O)Nc4ccc5c(c4)CCC5)nc32)cc1
    i | -0.92
- Cc1nn(-c2ccc3nnc(C)n3n2)c2c1C(c1ccc(OCc3ccc(F)cc3)cc1)CC(=O)N2 (stereo unspecified)
    i | -0.67
- CCN1CCCC(OC(=O)C(c2ccccc2)c2ccccc2)C1 (stereo unspecified)
    i | 0.02
- CCC(C)NC(=O)C1CCN(S(=O)(=O)c2ccc3c(c2)CC(C)N3C(=O)C2CC2)CC1 (stereo unspecified)
    i | 0.23
- O=C(CCc1nc(-c2cc3ccccc3[nH]c2=O)no1)NCc1cccnc1
    i | -0.11
- Cc1ccc(NC(=O)Cc2csc(C)n2)cc1
    i | -2.42
- O=C(CSc1nnc(-c2cccnc2)o1)Nc1ccc2c(c1)OCO2
    + | -0.1*
- Cc1[nH]nc2c1C(c1ccccc1Cl)N(c1ccc(Br)cc1)C2=O (stereo unspecified)
    i | 0.19
- O=C(CCC(=O)N1CCCN(c2nc3cccnc3s2)CC1)N1CCN(c2ccccn2)CC1
    i | 0.47
- Cc1c(C)c2c(c(C)c1O)CCC(C)(C(=O)O)O2 (stereo unspecified)
    i | 0.3
- Clc1cccc(-c2noc3ncnc(NC4CCCC4)c23)c1
    i | 0.15
- CCc1c(C)nc(-n2nc(C)cc2NC(=O)c2ccc(C(C)(C)C)cc2)[nH]c1=O
    i | -0.94
- CCc1nn(-c2ccccc2)c2nc(-c3ccccc3)nc(SCC(=O)Nc3cccc(OC)c3)c12
    i | -0.42
- CC(=O)N1CCOc2ccc(CN(C(=O)C(C)C)c3ccc(C)cc3)cc2C1
    i | -0.36
- Fc1ccc(-c2ccc(SCc3nc(-c4ccc5c(c4)OCO5)no3)nn2)cc1
    i | -0.07
- O=S(=O)(NC1CCCCCC1)c1ccc(-c2nnc(C3CC3)o2)o1
    i | -0.2
- CCc1nc(-c2cc(S(=O)(=O)Nc3ccc(F)cc3F)c(C)s2)cs1
    i | -2
- CC(C)(C)C(=O)Nc1cccc(OCc2cc(=O)n3ccccc3n2)c1
    i | 1.15
- Cc1cc(C)c(C(=O)Nc2ccccc2)c(SCC(=O)Nc2ccc(Br)cc2C)n1
    i | 0.67
- Cn1c(CN(c2ccc(F)cc2)S(C)(=O)=O)nnc1SCC(=O)c1ccccc1
    i | 0.77
- O=C(NC1CC1)C1=C(c2ccccc2)OCCS1
    i | 0.66
- Cc1noc(C)c1C1CCCN1C(=O)c1cc(C2CCCCC2)no1 (stereo unspecified)
    i | -1.02
- Cc1nc(Nc2c(C)n(C)n(-c3ccccc3)c2=O)cc(-c2ccccc2)n1
    i | 0.59
- CCn1nc(C)c(CCN(C)C(=O)Nc2ccc(Br)cc2F)c1C
    i | 0.87
- CCOc1ccc(C2C(C(=O)O)c3ccccc3C(=O)N2CCN2CCOCC2)cc1 (stereo unspecified)
    i | 0.48
- Cn1cc(CCC(=O)NCc2ccccc2)c2ccccc21
    i | -1.75
- O=C(NC1CCCCC1)c1ccc(Oc2ccnc(-c3ccc(F)cc3)n2)cc1
    i | -1.2
- O=C1CSC(c2cccc(NS(=O)(=O)c3cccc4nsnc34)c2)N1 (stereo unspecified)
    i | -0.71
- COC(=O)c1c(C)[nH]c(C(=O)N2CCCC(C(=O)N3CCN(c4ccccn4)CC3)C2)c1C (stereo unspecified)
    i | -0.85
- CCC(C)NC(=O)c1cc2ccc3ccc(C)[nH]c3c2n1 (stereo unspecified)
    i | 1.02
- CCn1nccc1C(=O)N1CCC(Nc2ncnc3c2CCC3)CC1
    i | 0.06
- O=C(Nc1ccccc1)C12CC1/C(=N\O)c1ccccc1O2 (stereo unspecified)
    i | -0.83
- O=C1CN(Cc2cccc(F)c2)S(=O)(=O)c2ccccc2N1Cc1ccc(F)cc1
    i | 0.13
- O=C1CCc2cc(NC(=O)C3CCC3)ccc2N1
    i | 0.16
- Cc1ccccc1-n1c(-c2ccc(Cl)cc2)cn2c3c(=O)n(C)c(=O)n(C)c3nc12
    i | 0.65
- Cc1c(C)n(-c2ccccc2)c2ncn(CCC(=O)NCc3ccccn3)c(=O)c12
    i | -1.79

# Rewritten field by field: entries from further up.
Cc1[nH]nc2c1C(c1ccccc1Cl)N(c1ccc(Br)cc1)C2=O (stereo unspecified)
  Anaer choline gr: i; Anaer choline gr early: 0.19
Cc1c(C)n(-c2ccccc2)c2ncn(CCC(=O)NCc3ccccn3)c(=O)c12
  Anaer choline gr: i; Anaer choline gr early: -1.79
Cc1c(C)c2c(c(C)c1O)CCC(C)(C(=O)O)O2 (stereo unspecified)
  Anaer choline gr: i; Anaer choline gr early: 0.3
Cc1ccc(-c2nc3cnc(Br)cn3c2Nc2ccc3c(c2)OCO3)cc1
  Anaer choline gr: i; Anaer choline gr early: 1.95

# (cont.)
# Fields: Anaer choline gr | Anaer choline gr early
- O=C(CSc1nccc2c1ccn2Cc1ccccc1)N1CCN(c2ccc(F)cc2)CC1
    i | 0.95
- O=C(CSc1nc(-c2ccccc2)no1)NCc1ccccc1Cl
    i | 1.13
- CCC(C(=O)NCCCN1CCOCC1)N1C(=O)CCCc2ccccc21 (stereo unspecified)
    i | 0.81
- COc1ccc2nc(NC(=O)c3ccc(-c4noc(C)n4)cc3)sc2c1
    i | 3.7
- CCOc1ccc(NC(=O)N(C)Cc2nc3cc(C(=O)N(C)C)ccc3n2CC)cc1
    i | -0.35
- CC1CCN(c2nc3ncnc(SCC(=O)NCC4CCCO4)c3s2)CC1 (stereo unspecified)
    i | -1.85
- Cc1cc(N2CCOCC2)n2nc(CN3CCc4ccccc4C3)nc2n1
    i | 0.4
- CCc1onc(C)c1C1CCCN1Cc1cccc(Cl)c1 (stereo unspecified)
    i | 1.16
- CC(C)c1nnc2ccc(N3CCOCC3)nn12
    i | -1.31
- Cn1c(N2CCCC(C(=O)NC3CC3)C2)cc(=O)n(C)c1=O (stereo unspecified)
    i | 0.31
- Cc1cc(C)cc(N2C(=O)c3cc4sccc4n3CC2(C)C(=O)NC2CCCCC2)c1 (stereo unspecified)
    i | 0.19
- Cc1ccccc1NS(=O)(=O)c1cn(C)c(C)n1
    i | -1.03
- O=C(CNS(=O)(=O)c1cc(-c2noc(C3CCC3)n2)cs1)N1CCCCC1
    i | 0.59
- COc1ccccc1Cc1nc2ccccc2nc1SCC(=O)NCC1CCCO1 (stereo unspecified)
    i | 0.7
- O=C(c1ccc(Cn2c(=O)c(=O)[nH]c3cccnc32)cc1)N1CCN(c2ccccn2)CC1
    i | 0.24
- Cc1ccc(-c2ncc(C(=O)N3CC=C(c4ccccc4)CC3)c(-c3ccncc3)n2)cc1
    i | -1.31
- Cc1noc2ncnc(N3CCC(C(=O)Nc4ccc(F)cc4F)CC3)c12
    i | -0.08
- Cc1nc(Nc2ccc(NC(=O)Nc3ccc(F)cc3)cc2)cc(N2CCCC2)n1
    i | -0.57
- Clc1cccc(C=NC=Nc2cccc(Cl)c2)c1
    i | 0.03
- CCOc1cccc(CN2CCCC2c2c(C)noc2CC)c1O (stereo unspecified)
    i | -1.21

# Sorted by molecular weight (rising): 3 of the compounds above
# Fields: Anaer choline gr | Anaer choline gr early
- O=C(Nc1ccccc1)C12CC1/C(=N\O)c1ccccc1O2 (stereo unspecified)
    i | -0.83
- Cc1noc(C)c1C1CCCN1C(=O)c1cc(C2CCCCC2)no1 (stereo unspecified)
    i | -1.02
- COC(=O)c1c(C)[nH]c(C(=O)N2CCCC(C(=O)N3CCN(c4ccccn4)CC3)C2)c1C (stereo unspecified)
    i | -0.85

# (next part)
# Fields: Anaer choline gr | Anaer choline gr early
- Cc1cccc(NC(=O)CSc2nnc3n(C)c4ccccc4n23)c1
    i | 0.51
- O=C(c1ccc(Nc2ccc3c(c2)OCO3)nn1)N1CCc2ccccc21
    i | 1.72
- CCCSc1nc2sc(C)c(C)c2c(=O)n1-c1ccccc1
    i | 0.88
- Cc1c(C(=O)Nc2ccc(-n3cnnn3)cc2)nnn1-c1ccc2noc(-c3ccccc3)c2c1
    i | -1.33
- COc1ccc(Nc2ccc3cc(S(=O)(=O)N4CCOCC4)ccc3n2)cc1OC
    i | -0.97
- O=C(O)Cc1ccc(O)c(O)c1
    i | 0.35
- O=C(Cn1nc2c3cc(-c4ccccc4)nn3ccn2c1=O)Nc1ccccc1
    i | -0.05
- Cc1cc(NCc2ccccc2)n2nc(C(F)(F)F)c(-c3ccc(F)cc3)c2n1
    i | 1.04
- Cc1ccc(CSc2nnc3c(S(=O)(=O)N4CCN(c5ccc(F)cc5)CC4)cccn23)cc1
    i | 0.83
- O=C1CCc2cc(S(=O)(=O)Nc3cccc4c3CCCC4)cc3c2N1CC3
    i | -1.77
- O=S(=O)(c1ccc(-n2cnnn2)cc1)N1CCN(c2cnccn2)CC1
    i | -2.19
- COc1cccc(Oc2ccnc(-c3cccc(C(=O)NCc4ccc5c(c4)OCO5)c3)n2)c1
    i | 0.01
- Cc1ccc(OCCn2c(SCCO)nc3c(N)ncnc32)cc1
    i | 0.23
- CCN(CC)C(=O)Cn1c(=O)n(Cc2ccc(C(=O)NC)cc2)c(=O)c2cc(OC)c(OC)cc21
    i | -0.15
- CCc1nc(CN2C(=O)COc3cc(S(=O)(=O)N(CC)Cc4ccccc4)c(C)cc32)no1
    i | 1.8
- Cc1ccc(C(=O)c2oc3ccccc3c2NC(=O)c2ccccc2Cl)cc1
    i | 0.09
- O=C1c2ccccc2C(=O)N1c1nc2n(n1)C(c1ccc(F)cc1)C=C(c1ccc(Cl)cc1)N2 (stereo unspecified)
    i | 0.23
- O=S(=O)(c1cccc(-c2nc(-c3ccccc3)no2)c1)N1CCCc2ccccc21
    i | 0.45
- CN(Cc1ccccc1)S(=O)(=O)c1ccc(S(=O)(=O)N(Cc2ccccc2)Cc2ccccc2F)cc1
    i | 1.23
- CCc1ccc(NS(=O)(=O)c2ccc3c4c2CC(=O)N4CC(C)S3)cc1 (stereo unspecified)
    i | 0.17
- CCCCN(CC)c1ccc2nnc(CCc3nc(-c4cccc(C)c4)no3)n2n1
    i | 1.94
- O=C(NCc1ccc(Cl)cc1)c1cc(-c2ccncc2)n[nH]1
    i | -0.63
- CCOc1ccc(-c2nc3ccc(-c4nc5ccc(N6CCN(C)CC6)cc5[nH]4)cc3[nH]2)cc1
    i | -4.04
- Cc1sc(-c2noc(C(C)C)n2)cc1S(=O)(=O)N1CCCC(C(=O)N2CCOCC2)C1 (stereo unspecified)
    i | 0.19
- CCOC(=O)c1cc(C)n(CC2CCC(C(=O)Nc3cc(OC)cc(OC)c3)CC2)c1C (stereo unspecified)
    i | -1.17
- Cc1ccc(-c2cnnc(-n3nc(C)c4c3NC(=O)CC4c3ccc(C)cc3)n2)cc1 (stereo unspecified)
    i | 0.03
- CC(C)OC(=O)CSc1nnc2c(S(=O)(=O)N3CCN(c4ccc(F)cc4)CC3)cccn12
    i | -0.31
- O=C(NC1CCN(Cc2ccccc2)CC1)C1CCCN(c2ncc(-c3ccccc3)cn2)C1 (stereo unspecified)
    i | -0.02
- Cc1cc2nc(CSc3nnc(NC(=O)COc4ccc(Cl)cc4)s3)cc(=O)n2o1
    i | -1.81
- Oc1ccc(Cn2cc[nH]c2=S)cc1
    i | 0.74
- Cc1ccc(CNC(=O)c2ccc(CN3CCN(Cc4ccccc4)C3=O)cc2)cc1
    i | -0.25
- C=CCNc1oc(-c2ccc(C)cc2)nc1S(=O)(=O)c1ccc(C)cc1
    i | 1.25
- Cc1ccc(S(=O)(=O)Nc2cccc(C(=O)N3CCCC(C(=O)NCCC(C)C)C3)c2)c(C)c1 (stereo unspecified)
    i | 0.05
- Cc1cc2cc3c(C)cc(=O)oc3c(C)c2o1
    i | 0.55
- Cc1cccc(-c2nc3nc(C)cc(N4CCCC4)n3n2)c1
    i | 0.1
- Cc1cc2c(cc1S(=O)(=O)N1CCCC1)OCC(=O)N2Cc1noc(C2CCC2)n1
    i | -1.21
- CNC(=O)c1cn(-c2ccc(SCC(=O)Nc3ccc4c(c3)OCCO4)nn2)cn1
    i | 0.25
- O=C(Cn1c(=O)nc2c3c4c(sc3ncn21)CCCC4)NC1CCCCC1
    i | -0.96
- NC(=S)NCCC[C@H](N)C(=O)O
    i | 0.87
- CCC(O)c1nc2ccccc2n1CC(=O)N1CCOCC1 (stereo unspecified)
    i | 0.11
- CCc1nc(OCC(=O)N2CCCC2)c2c(-c3ccccc3)noc2n1
    i | 0.31
- Cc1cccc(-n2c(-c3ccccc3F)nc3c(cnn3-c3ccccc3)c2=O)c1
    i | 0.48
- N[C@@H](COP(=O)(O)O)C(=O)O
    i | -0.57&0.3
- Cc1nc(-c2cc(S(=O)(=O)N(C)Cc3ccccc3)c(C)s2)sc1C
    i | 1.32
- C#CCn1c(=O)c2c(ncn2C)n(C)c1=O
    i | 0.62
- Cn1ncc2c(Nc3cccc(Cl)c3)ncnc21
    i | 0.74
- Cc1cc2c(cc1S(=O)(=O)N1CCCC1C(=O)NCc1ccccc1Cl)OCC(=O)N2 (stereo unspecified)
    i | -0.34
- Cc1ccc(-c2csc3c(=O)n(C)c(SCC(=O)NC4CCCC4)nc23)cc1
    i | 0.64
- Cc1ccc2oc(=O)c3cc(C(=O)NCCCN4CCCC4=O)sc3c2c1
    i | -0.6
- O=S(=O)(c1ccc(Br)cc1)N1CCC2(CC1)Nc1ccccc1-n1cccc12
    i | 0.64
- c1ccc(-c2noc(-c3cccnc3NC3CCCC3)n2)cc1
    i | 1.01
- CCCCCCNC(=O)c1sc(COc2cccc(C)c2)nc1C
    i | 1.44

# Some of the compounds tested. The share of hits here may be higher or lower than overall.
